Anaer choline gr: inhibitors of anaerobic choline-dependent gram-negative bacterial growth; AID 1963822; calls only; actives 0.2% (n = 55,000); Gram-negative bacterium anaerobic choline minimal medium, absorbance growth; hits give low values; many inactives read as strong as hits in the columns shown;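 active means growth z-score on choline under -2 at 7 or 20 h with little or no fall on glycerol, limits in tiers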;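 further: stock transfer was 300 nL into about 50 µL; the organism is E. coli; final concentration not given here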
Anaer choline gr early: also measured in Anaer choline gr; calls as there; z-score; measured here: choline growth z-score, timepoint 1;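 score of optical density at 7 h as mean of two plates; lower means less growth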
Numbers without * were called inactive; i = inactive; + = active, no number; & = joins results of further samples.

SMILES | Anaer choline gr | Anaer choline gr early
COc1cccc2c1Oc1ncccc1N(C(=O)CCC(=O)NC(C)CCc1ccccc1)C2 (stereo not given) | i | -0.9
COC(=O)c1ccc2c(c1)N(Cc1ccc(C)cc1)C(=O)CS2 | i | 0.26
CCOC(=O)c1c(C)[nH]c(CCC(=O)NCc2cccnc2)c1C | i | 0.38
O=S(=O)(c1cccc(F)c1)N1CCN(c2ncnc3c2nnn3-c2cccc(F)c2)CC1 | i | -0.54
CCNC(=O)c1cc2ccc3ccc(C)[nH]c3c2n1 | i | 2.4
O=C(Cn1ccc2cc(S(=O)(=O)N3CCCC3)ccc21)NCc1ccc(Cl)cc1 | i | -1.43
O=C(NCc1ccccc1Cl)c1ccc(-c2cnc(NCc3ccccc3)nc2)cc1 | i | -0.88
Cc1nn(-c2ccccc2)c2sc(C(=O)NCCCN(C)c3ccccc3)cc12 | i | 0.92
COc1ccccc1-c1cc(=O)n(CC(=O)NCc2ccc(C)cc2)c2c1CCCC2 | i | -1.07
O=C(Nc1sc2c(c1C(=O)NCC1CCCO1)CCC2)c1csnn1 (stereo not given) | i | 0.8
O=C(NCCCN1CCOCC1)C1CCCN(c2ccnc(-c3ccc(F)cc3)n2)C1 (stereo not given) | i | -0.28
Cc1nnc(N2CCC(C(=O)NCc3cccnc3)CC2)c2nn(-c3ccc(Cl)cc3)c(C)c12 | i | -0.9
COc1cccc(CNC(=O)c2ccc(CSc3nc4cccnc4n3Cc3ccccc3)cc2)c1 | i | 1.65
Cc1cccc(C(=O)Nc2ccc(N3CCN(c4ccccc4Cl)CC3)c(C(=O)O)c2)c1 | i | 0.19
O=C(Oc1ccccc1Br)c1cc(-c2ccc3c(c2)OCCO3)on1 | i | -0.47
CC(C)NCc1ccc(-c2ccc(F)cc2)o1 | i | 0.21
Cc1cccc(Cn2c(C)c(C)c3cc(C(=O)NCC4CCCO4)ccc32)c1 (stereo not given) | i | 0
CCOC(=O)C1CCN(c2cc3c(cc2NC(=O)NCC2CCCO2)n(C)c(=O)n3C)CC1 (stereo not given) | i | -0.2
O=c1c(O)c(N2CCN(c3ccc(F)cc3)CC2)c1=O | i | -0.63
Cc1ccc(Nc2ncnc3c2cnn3C)cc1C | i | -0.43
COc1cc(C)c(C)cc1S(=O)(=O)N1CCc2cc3ccccc3nc21 | i | 0.44
NS(=O)(=O)c1ccc(CCNC(=O)c2ccc3nc4ccc(Cl)cc4c(=O)n3c2)cc1 | i | 0.05
Cc1ccc(N2C(=O)CC(NCC3CCCO3)C2=O)cc1 (stereo not given) | i | 0.63
COc1ccc(-c2noc(CSc3nnc(-c4ccc5c(c4)OCCCO5)n3C)n2)cc1 | i | -0.3
NC(=O)C1(N2CCCCC2)CCN(C(=O)c2[nH]nc3c2CCc2ccccc2-3)CC1 | i | 0.3
CN(C)C(=O)c1cc2c(s1)CCC(C(=O)NCCN1CCOCC1)C2 (stereo not given) | i | 0.47
Fc1ccc(-c2cc3c(SCc4cccc(Br)c4)nccn3n2)cc1 | i | 1.02
CCCCn1c(=O)c2sccc2n2c(SCc3ccc(C)cc3)nnc12 | i | 0.59
CCC1(C)CC(=O)NC1=O (stereo not given) | i | -0.01&-0.07
O=C(Nc1ccccc1F)c1cnc2ccccn2c1=O | i | -0.05

SMILES | Anaer choline gr | Anaer choline gr early
O=C(CSc1nc2ncccc2n2cccc12)N1CCN(c2ccccn2)CC1 | i | 0.7
CCCS(=O)(=O)Nc1ccc2c(c1)N(C(=O)c1ccccc1)CCC2 | i | 0.46
CCn1nc(CN(C)C)c2c1CCNC2 | i | 0.8
COc1ccc(OC)c(S(=O)(=O)N2CCC(n3cnc4ccc(Cl)cc4c3=O)CC2)c1 | i | -0.89
O=C(NCCCN1CCC(Cc2ccccc2)CC1)c1cnn(-c2ccccc2)c1-n1cccc1 | i | -0.56
CCOC(=O)c1cccc(NC(=O)N2Cc3ccccc3Oc3ncccc32)c1 | i | -0.03
O=C(Cn1c(=O)c2cccn2c2cccnc21)NCc1cccc(Cl)c1 | i | -0.14
C=CCNC(=O)C1CCN(Cc2c[nH]c3ccc(OC)cc23)CC1 | i | 0.49
CCC1CCCCN1S(=O)(=O)c1cc(-c2nc(C)c(C)s2)sc1C (stereo not given) | i | 0.65
Cc1onc(-c2ccc(Br)cc2)c1C(=O)N1CCC(N2CCCCC2)CC1 | i | 0.19
Cc1ccc(N2C(=O)CN(C3CCCC3)[C@H]3CS(=O)(=O)C[C@H]32)cc1 | i | -1.76
Cc1cc(C)nc(NC(c2ccccn2)c2c(NC(=O)c3ccccc3)sc3c2CCCC3)n1 (stereo not given) | i | -0.22
CC(C)CCNC(=O)NCCn1c(-c2ccc(F)cc2)nc2ccccc21 | i | 0.67
COc1ccc(C2C(Oc3ccccc3)C(=O)N2c2ccc(C)c(C)c2)cc1OC (stereo not given) | i | -0.36
CCCS(=O)(=O)c1nc2ccc(NS(C)(=O)=O)cc2s1 | i | -0.57
O=C(c1cnc2ccccc2c1Nc1ccc(F)c(Cl)c1)N1CCOCC1 | i | -0.03
COc1ccccc1NC(=O)Nc1nc2c(s1)CN(S(=O)(=O)c1ccccc1)CC2 | i | 0.28
O=C(NCCC1=CCCCC1)c1cccc(-n2nnc3cccnc32)c1 | i | -0.05
CCN(CC)C(=O)c1ccc2c(c1)N(CC(=O)N1CCCC1)C(=O)CO2 | i | -0.22
O=C(NCc1ccccc1)c1cc(-c2ccc(Cl)cc2)nc2n[nH]c(-c3ccccc3)c12 | i | 0.19
CCOc1ccc(NC(=O)Cn2c3ccccc3n3c(=O)cc(-c4cccc(Cl)c4)nc23)cc1 | i | -0.54
O=C(NC1CCCC1)c1cccc(Oc2ccnc(-c3ccc(F)cc3)n2)c1 | i | 0.2
CCc1ccc(O)c(C(=O)c2cnc3cc(-c4ccc(C)cc4)nn3c2)c1 | i | 1.47
COc1cc(-c2ccno2)ccc1S(=O)(=O)N1CCc2ccccc2C1 | i | -0.47
Cc1ccc(-c2cc(C(=O)N3CCC(C)CC3)no2)cc1 | i | 0.88
CC(C)c1ccc(NC(=O)CSc2nc3nccnc3c(=O)n2Cc2ccccc2Cl)cc1 | i | 0.54
Cc1ccc(N2CC(C(=O)Nc3ccc4c(c3)sc(=O)n4C)CC2=O)cc1 (stereo not given) | i | -0.2
Cc1ccc(CN2c3ccccc3-c3nc(SCC(=O)Nc4ccccc4C)ncc3S2(=O)=O)cc1 | i | 1.29
Cc1ccc(NC(=O)CCCc2nc(-c3cc4ccc(C)cc4[nH]c3=O)no2)cc1 | i | -1.91
CC(C)(C)c1nnc(Nc2cccc(F)c2)[nH]c1=O | i | -0.4

Individual results from the entries so far:
CCN(CC)C(=O)c1ccc2c(c1)N(CC(=O)N1CCCC1)C(=O)CO2 in Anaer choline gr early shows -0.22
O=C(Cn1c(=O)c2cccn2c2cccnc21)NCc1cccc(Cl)c1 in Anaer choline gr early shows -0.14
Cc1ccc(N2C(=O)CN(C3CCCC3)[C@H]3CS(=O)(=O)C[C@H]32)cc1 in Anaer choline gr early shows -1.76
C=CCNC(=O)C1CCN(Cc2c[nH]c3ccc(OC)cc23)CC1 in Anaer choline gr early shows 0.49

Next section:
SMILES | Anaer choline gr | Anaer choline gr early
O=S(=O)(Nc1nc2n(n1)C(c1c(F)cccc1Cl)C=C(c1ccccc1)N2)c1ccccc1 (stereo not given) | i | 0.61
CCCN1C[C@H](CSC)C[C@@H]2c3cccc4[nH]cc(c34)C[C@H]21 | i | -0.1&0.6&-0.28
Cc1sc2cc(C(=O)NCCN3CCN(C)CC3)[nH]c2c1CN1CCCCC1 | + | -4.45*
COc1ccccc1Cn1cnc2c([nH]c3ccc(C)cc32)c1=O | i | 0.25
CS(=O)(=O)N(Cc1nnc(SCC(=O)c2ccccc2)n1-c1ccccc1)c1ccc(F)cc1 | i | 0.1
CCOc1ccc(-c2cc3c(N4CCC(C(=O)O)CC4)nccn3n2)cc1 | i | 0.83
O=C(NCc1ccc(Br)cc1)c1cncc(-c2ccc(F)cc2)c1 | i | 0.97
CC(C)c1cc(C2CCCN2S(=O)(=O)c2ccc(Br)s2)on1 (stereo not given) | i | 0.4
COc1ccc(OC)c(S(=O)(=O)Nc2ccc(N3CCCS3(=O)=O)cc2)c1 | i | 0.42
CNc1onc(-c2ccc(F)cc2)c1C(=O)OC | i | -1.12
O=C(NCCc1nc(-c2ccccc2)no1)c1ccccc1 | i | -1.04
Cn1c(=O)c(=O)n(CC(=O)N2CCc3ccccc32)c2ccccc21 | i | -0.45
c1ccc(-c2nnc3sc(CN4CCc5ccccc5C4)cn23)cc1 | i | 0.35
Cc1ccc(-n2c(N)c(Br)c(=O)[nH]c2=O)cc1 | i | 0.63
CN1C(C(=O)NCc2ccc3c(c2)OCO3)=C(c2ccccc2)c2cc(Cl)ccc2S1(=O)=O | i | 0.1
COc1ccc(-c2cnn3c(SCC(=O)N4CCCC4)cc(C)nc23)cc1OC | i | 0.27
Cc1nc(-c2cc(S(=O)(=O)NCCC(C)C)c(C)s2)sc1C | i | -1.11
CCc1ccc(-c2cn3nc(N4CCC(C(=O)NCc5ccc(Cl)cc5)CC4)sc3n2)cc1 | i | 0.49
O=C(NCC1CCCO1)c1nc(-c2ccc(S(=O)(=O)N3CCOCC3)cc2)no1 (stereo not given) | i | -0.35
COc1cc(CN2CCCC2c2c(C)noc2C)ccc1O (stereo not given) | i | -1.51
CN1CCN(C(=O)c2ccc(CN3CCc4c(c(C(=O)N5CCCC5)nn4C)C3)cc2)CC1 | i | -0.55
O=S(=O)(NCc1cccn1Cc1ccccc1)c1cccc2nsnc12 | i | 0.42
COc1ccc(-c2ccc(=O)[nH]n2)cc1F | i | -1.76
CCOC(=O)c1ccccc1NC(=O)Nc1nc2ccccc2s1 | i | 1.25
O=C(COc1ccccc1)N1CCN(c2cc(=O)n3nc(-c4ccccc4)sc3n2)CC1 | i | 0.63
COC(=O)c1ccc(Nc2nc(C)c3nc(C)n(-c4ccc(C(=O)OC)cc4)c3n2)cc1 | i | 0.57
O=C(Cn1ncc2c1-c1ccccc1OC2)NCCCN1CCC(Cc2ccccc2)CC1 | i | 0.11
COc1ccc(-c2nn(CCCC(=O)NCCc3ccc(Cl)cc3)c(=O)c3noc(C)c23)cc1 | i | 1
O=C(CC1CCN(C(=O)C2CCCCC2)CC1)N1CCCC1 | i | -0.05
Cc1nnsc1C(=O)N1CCN(c2ccccc2)CC1 | i | -2.31

2 of the compounds above, field by field:
> CN1C(C(=O)NCc2ccc3c(c2)OCO3)=C(c2ccccc2)c2cc(Cl)ccc2S1(=O)=O
  Anaer choline gr: i | Anaer choline gr early: 0.1

> COc1ccc(-c2cnn3c(SCC(=O)N4CCCC4)cc(C)nc23)cc1OC
  Anaer choline gr: i | Anaer choline gr early: 0.27

(more compounds)
SMILES | Anaer choline gr | Anaer choline gr early
N#CC(=C(/N)Sc1ccccc1N)/C(C#N)=C(\N)Sc1ccccc1N | i | 0.67
CC(c1ccccc1)N1CC(O)=C(c2nc3ccccc3c(=O)[nH]2)C1=N (stereo not given) | i | -1.11
O=S1(=O)c2ccccc2NC(c2ccccc2Cl)N1Cc1ccc(Br)cc1 (stereo not given) | i | -0.43
COc1cc(C2CC(=O)Nc3nc(N)[nH]c(=O)c32)ccc1OCc1ccccc1C (stereo not given) | i | -0.19
CC(C)(C)NC(=O)C1CC2CCCCC2CN1CC(O)C(Cc1ccccc1)NC(=O)C(CC(N)=O)NC(=O)c1ccc2ccccc2n1 (stereo not given) | i | 0.67
Cc1cc(C)cc(-n2ncc3c(N4CCN(C)CC4)ncnc32)c1 | i | 0.22
Cc1cccc(CSc2ncnc3scc(-c4ccccc4)c23)c1 | i | 2.62
COC(=O)c1ccccc1NC(=O)Cn1c(=O)c(CNc2ccccc2)cc2ccc(OC)cc21 | i | 1.02
COC(=O)c1c(-c2ccc(F)cc2)noc1NC1CCCC1 | i | -0.55
Cc1nc2nc[nH]n2c(=O)c1NS(=O)(=O)c1ccc(N2CCCC2=O)cc1 | i | -0.39
Cc1ccccc1COc1cccc(C2CC(=O)Nc3c2c(C)nn3-c2ccc3nncn3n2)c1 (stereo not given) | i | -0.89
CCN1CCN(CC2CCN(S(=O)(=O)Cc3ccc(C)c(C)c3)CC2)CC1 | i | 0.22
Cc1cccc(-c2csc(-c3nc(-c4ccncc4)no3)c2-n2cccc2)c1 | i | 0.24
O=C(O)c1ccc(N2CCN(c3ccc(F)cc3)CC2)c(NS(=O)(=O)c2cc(F)ccc2F)c1 | i | 0.13
O=C(Cn1c(=O)n(CC2CCCO2)c(=O)c2sc3ncccc3c21)NC1CCCCC1 (stereo not given) | i | 0.64
CCOc1ccc(C2N=C(Nc3cccc(C)c3C)Nc3nc(C)cc(=O)n32)cc1 (stereo not given) | i | 0.74
CCc1ccc(Nc2cc(-n3nc(C)cc3C)ncn2)cc1 | i | 0.49
Cc1nn(-c2nc3ccccc3o2)c2c1C(c1ccc(Br)cc1)CC(=O)N2 (stereo not given) | i | -0.48
Cc1nc(-c2ccccc2)sc1C(=O)N1CCC(CC(=O)NCCN2CCOCC2)CC1 | i | 0.17
Cc1cccc(-c2nc(N)n(C(=O)C(C)(C)C)n2)c1 | i | 0.77
O=S(=O)(c1cccnc1)N1CCn2cccc2C1c1ccccc1F (stereo not given) | i | -1.6
O=S1(=O)N=CN(c2ccc(F)c(Cl)c2)c2ncccc21 | i | 1.24
CCN1CCN(c2ccc(NC(=O)c3ccccc3Cl)c(C(=O)O)c2)CC1 | i | -1.78

One compound at a time, from the list above. Values in the order: Anaer choline gr	Anaer choline gr early
Cc1cccc(CSc2ncnc3scc(-c4ccccc4)c23)c1 is listed as i	2.62
O=C(c1cnc2ccccc2c1Nc1ccc(F)c(Cl)c1)N1CCOCC1 is listed as i	-0.03

High-throughput results deposited in PubChem BioAssay by ICCB-Longwood Screening Facility, Harvard Medical School.

This is a subset (hit frequency here may not be typical).
